Assay outcomes (PubChem BioAssay)
Vaccinia mCherry = inhibitors of vaccinia virus infection (mCherry reporter signal); AID 720579; 0.63% of 310,000 active; Vaccinia virus mCherry reporter infection, fluorescence; about a quarter of the inactives have no number; Potency, µM (top dose mostly 36.5 µM), without a hit: top-dose activity change, negative = inhibition, actives largely listed as inhibitors; active = well fitted inhibition curve with a large enough effect; inconclusive = small, poorly fitted or top-dose-only effect; inactive = no such curve, though single readings can be large or run the other way; tested in A549 cells; further: nearly all actives have a fitted effect of over 35% in size; inactives centre near -10
Vaccinia Venus = vaccinia inhibition (Venus reporter); 0.46% of 330,000 active; Vaccinia virus Venus reporter expression, fluorescence; AID 720580; Potency, µM (highest dose often 36.5 µM), for inactives: at the highest dose activity change, negative = inhibition, hits mostly inhibitors; active means well fitted inhibition curve with a large enough effect; inconclusive means small, poorly fitted or top-dose-only effect; inactive means no such curve, though single readings can be large or run the other way; tested in A549 cells; further: nearly all actives have a fitted effect of over 30% in size; inactives centre near -10
Active calls of the source: *; i = inactive; ? = inconclusive; . = not tested or not shown; [ ] = another dose, or the depositor's remark. On the % scale 0 is the no-effect control and ±100 the full control effect; potency means the concentration at half of the fitted maximal effect.

molecule | Vaccinia Venus | Vaccinia mCherry
O=C(Nc1ccccc1OC(=O)c1ccc(Cl)cc1)c1ccc(Cl)cc1 | -18% | -29%
C=CCNCc1ccccc1[N+](=O)[O-] | -14% | -21%
Cc1cc(C)cc(Cn2c3ccc(NC(=S)NC4CCCCC4)cc3c(=O)n2C)c1 | -25% | -2%
CC(NC(=O)C1=CC=CN2CCS(=O)(=O)N=C12)c1ccc(Cl)cc1Cl (stereo not drawn) | -13% | -23%
CCOC(=O)c1c(NC(=O)CSc2nnc(-c3c[nH]c4ccccc34)n2CC)sc2c1CCCC2 | ? | -12%
O=C(CCc1nnc2ccc(NCc3ccccc3Cl)nn12)NC1CCCCC1 | -16% | -13%
O=C(NCCNC(=O)c1ccc(Br)o1)c1cccnc1 | -5% | -3%
COc1cc(NC(=O)c2cc(=O)[nH]c3ccc(S(=O)(=O)N4CCOCC4)cc23)cc(OC)c1 | -12% | i
CC(C)(C)NC(=O)NC(=O)CSc1ncccn1 | -15% | i
O=C(NNC(=O)c1cccs1)c1ccccc1 | -11% | i
COCCNC(=O)/C(C#N)=C/c1ccc(C)o1 | -9% | -2%
CCOc1cccc(C(=O)Nc2nc3c(s2)CC(C(C)(C)C)CC3)c1 (stereo not drawn) | -14% | -4%
CC(C(=O)Nc1ccc([N+](=O)[O-])cc1Cl)N1CCN(S(=O)(=O)c2cccs2)CC1 (stereo not drawn) | -14% | -4%
CC1CC(=O)N(CC(=O)Nc2ccc(OC(F)(F)F)cc2)c2ccccc2S1 (stereo not drawn) | -2% | -9%
COC(=O)c1ccc(NC(=S)NCCc2ccccc2C)cc1 | -12% | -10%
COc1cccc(N(CC(=O)NC2CCCC2)C(=O)CCC(=O)Nc2nccs2)c1 | -2% | -10%
CC(=O)c1ccc(N2CCN(C(=O)Nc3cn(CC(C)C)c(=O)c4ccccc34)CC2)cc1 | -4% | 5%
N#Cc1cn(-c2cccc(C(F)(F)F)c2)c(=O)[nH]c1=O | -2% | i
Cc1ccc(/C=N/NC(=O)Cn2cnc3c2c(=O)n(C)c(=O)n3C)s1 | -6% | -12%
COc1ccccc1C(=O)NNS(=O)(=O)c1ccc(F)cc1 | -2% | i

Next part, overlapping the part above by 2 compounds.
molecule | Vaccinia Venus | Vaccinia mCherry
Cc1ccc(/C=N/NC(=O)Cn2cnc3c2c(=O)n(C)c(=O)n3C)s1 | -6% | -12%
COc1ccccc1C(=O)NNS(=O)(=O)c1ccc(F)cc1 | -2% | i
Cc1ccc(C)c(S(=O)(=O)c2c(N)n(/N=C/c3ccco3)c3nc4ccccc4nc23)c1 | -2% | -24%
Cc1csc(Nc2ccccc2C(F)(F)F)n1 | -15% | .
CC1(C(=O)Nc2ccc3c(c2)OCCO3)CN(S(C)(=O)=O)CC(=O)N1CCc1ccccc1 (stereo not drawn) | -21% | -17%
COCCN1C[C@@H](CO)O[C@@H](n2cnc3c(N4CCN(CCO)CC4)ncnc32)C1 | 5% | -2%
O=C(c1ccc(Cl)cc1)N(Cc1cccs1)C1CCS(=O)(=O)C1 (stereo not drawn) | 0% | .
O=C(NCC(c1ccco1)N1CCN(c2ccccc2F)CC1)c1cccs1 (stereo not drawn) | -11% | -5%
Cc1c(C(=O)NCCc2ccc(S(N)(=O)=O)cc2)sc2nc3n(c(=O)c12)CCCC3 | -6% | -1%
CC1=C(C(=O)N2CCOCC2)C(c2ccc(O)cc2)NC(=S)N1 (stereo not drawn) | -5% | i
O=C(Nc1ccccc1)C1=C[C@H](c2ccc3c(c2)OCO3)C[C@H](OCc2ccc(CO)cc2)O1 | -12% | -4%
COc1cc(/C=N/NC(=S)NC2CC3C=CC2C3)cc(OC)c1OC (stereo not drawn) | -5% | -16%
N#C/C(=N\Nc1ccc([N+](=O)[O-])cc1)C(N)=S | -15% | -12%
COc1cc(C(=O)Nc2cc(C)ccc2OCc2cc(=O)n3cc(C)sc3n2)cc(OC)c1OC | 0% | -8%
CCN1CCc2nc(NC(=O)C(c3ccccc3)c3ccccc3)sc2C1 | -19% | .
CC(=O)Nc1ccc(NC(=O)C(C)OC(=O)c2cc(S(=O)(=O)N(C)C)ccc2N2CCCC2)cc1 (stereo not drawn) | -10% | i
CCC(=O)N(Cc1cc2ccccc2[nH]c1=O)c1ccccc1OC | 3% | -5%
CN(CC(=O)Nc1ccccc1Cl)C(=O)CSc1nnc(N)s1 | -2% | -11%
CCN(CC(=O)Nc1cc(Cl)cc(Cl)c1)CC(=O)NC1CCS(=O)(=O)C1 (stereo not drawn) | -5% | -13%
CN(C(=O)CN1C(=O)C2C3CC(C(Br)C3Br)C2C1=O)C1CCCCC1 (stereo not drawn) | 0% | -7%
O=C(Cn1nnc(-c2ccccc2)n1)OCc1csc(-c2ccccc2)n1 | -10% | -12%
CCOC(=O)c1c(C)nc2c(c1C)c(=O)oc1ccccc12 | -4% | -18%

Shown with two lines to a compound: entries from further up
Values in the order: Vaccinia Venus | Vaccinia mCherry
O=C(NCCNC(=O)c1ccc(Br)o1)c1cccnc1
    -5% | -3%
COc1cc(NC(=O)c2cc(=O)[nH]c3ccc(S(=O)(=O)N4CCOCC4)cc23)cc(OC)c1
    -12% | i
CC(C)(C)NC(=O)NC(=O)CSc1ncccn1
    -15% | i
O=C(NNC(=O)c1cccs1)c1ccccc1
    -11% | i
COCCNC(=O)/C(C#N)=C/c1ccc(C)o1
    -9% | -2%
CCOc1cccc(C(=O)Nc2nc3c(s2)CC(C(C)(C)C)CC3)c1 (stereo not drawn)
    -14% | -4%
CC(C(=O)Nc1ccc([N+](=O)[O-])cc1Cl)N1CCN(S(=O)(=O)c2cccs2)CC1 (stereo not drawn)
    -14% | -4%
CC1CC(=O)N(CC(=O)Nc2ccc(OC(F)(F)F)cc2)c2ccccc2S1 (stereo not drawn)
    -2% | -9%
COC(=O)c1ccc(NC(=S)NCCc2ccccc2C)cc1
    -12% | -10%
COc1cccc(N(CC(=O)NC2CCCC2)C(=O)CCC(=O)Nc2nccs2)c1
    -2% | -10%
CC(=O)c1ccc(N2CCN(C(=O)Nc3cn(CC(C)C)c(=O)c4ccccc34)CC2)cc1
    -4% | 5%
N#Cc1cn(-c2cccc(C(F)(F)F)c2)c(=O)[nH]c1=O
    -2% | i
Cc1ccc(/C=N/NC(=O)Cn2cnc3c2c(=O)n(C)c(=O)n3C)s1
    -6% | -12%

(next part)
molecule | Vaccinia Venus | Vaccinia mCherry
Nc1ccc(NC(=O)c2cc(Cl)ccc2O)c(Cl)c1 | -6% | -10%
CCCNC(=O)c1cc(C2CCCN(S(=O)(=O)c3cccc4cccnc34)C2)on1 (stereo not drawn) | -5% | -11%
COc1ccc(NC(=O)C2CCCC2)cc1S(=O)(=O)N1CCOCC1 | -22% | i
CCCC(C)(C)C(=O)N1CCC1(C)C(=O)NS(=O)(=O)c1ccccc1Cl (stereo not drawn) | -7% | i
O=S(=O)(c1ccc2ccccc2c1)N1CCN(Cc2ccccn2)CC1 | 3% | -7%
COc1ccc(/C=C(\NC(=O)c2cccs2)C(=O)N2CCOCC2)cc1OC | -2% | -4%
CCN(C1CCS(=O)(=O)C1)S(=O)(=O)c1cc(C)ccc1C (stereo not drawn) | -18% | -11%
CCCNC(=S)N1CCC(c2nc3cc(C)c(C)cc3[nH]2)CC1 | -11% | -2%
Cc1cc(C)c(NC(=O)CSc2nnc(CNC(=O)c3c(F)cccc3Cl)o2)c(C)c1 | -16% | -2%
O=C1C2CCCCN2C(=O)N1CCCCN1CCN(c2cccc(Cl)c2)CC1 (stereo not drawn) | -8% | -14%
CCOc1ccc(CCN2C(=S)N([C@@H](CC(C)C)CN3CCC[C@@H]3CN3C(=S)NC[C@@H]3Cc3ccc(O)cc3)C[C@@H]2Cc2ccc(O)cc2)cc1 | -13% | 9%
N=C(N)c1ccc(Cl)cc1 | -2% | -13%
CCOC(=O)Cc1c(Sc2ccccc2)c2ccccc2n1C | -18% | -7%
COC(=O)c1ccc(/C=C/c2ccc3cccc(OC(C)=O)c3n2)cc1 | -8% | -3%
Cn1c(CBr)c(C(=O)c2ccc([N+](=O)[O-])cc2)c(=O)n(C)c1=O | -20% | i
CC(CCc1ccccc1)NC(=O)COC(=O)C1=COCCO1 (stereo not drawn) | -1% | -7%
COc1ccc(NC(=O)CCS(=O)(=O)c2nc(-c3cccs3)cc(C(F)(F)F)n2)cc1OC | -11%[7.34 µM] | -8%[7.34 µM]
COc1cccc(-c2oc3c(c2-c2ccc(Br)nc2)C(O)CCC3)c1 (stereo not drawn) | -3% | i
CN(CC1COc2ccccc2O1)C(=S)Nc1ccccc1 (stereo not drawn) | -15% | -9%
Cc1ccc(NC(=O)COn2nnc3ccc(S(=O)(=O)N(C)C)cc32)cc1F | ? | .
Cc1noc(C)c1S(=O)(=O)N(C)C[C@H]1OCc2cnnn2CCCC(=O)N([C@H](C)CO)C[C@H]1C | -7% | -3%
O=C1CC(c2ccccc2)CC(O)=C1C=NCCN1CCNCC1 (stereo not drawn) | -24% | .
Cc1ccc(S(=O)(=O)OCCC2=CC(=O)CCN2Cc2ccccc2)cc1 | -25% | ?
COc1ccc(-c2ccc(SCC(=O)NCC3CCCO3)nn2)cc1OC (stereo not drawn) | -12% | i
CCCCSC1(SCCCC)N=C(N)C2(C#N)C(c3ccccc3)NC(C)=CC12C#N (stereo not drawn) | 4% | .
CC(=O)c1cccc(NC(=O)C2CCN(C(=O)c3cccs3)CC2)c1 | 5% | 16%
COc1ccc(C)cc1S(=O)(=O)N1CCOCC1 | -6% | 10%
CCn1cc(C(=O)OC(C)C(=O)Nc2c(C)n(C)n(-c3ccccc3)c2=O)c(=O)c2ccc(C)nc21 (stereo not drawn) | ? | .
CCC(C)C(NC(=O)c1ccc(Cl)cc1)C(=O)O (stereo not drawn) | -7% | .
Cc1cc(C)n(-c2ccc(NC(=O)C3CCN(Cc4ccccn4)CC3)cc2)n1 | -13% | -6%
O=C(NCc1ccc(F)cc1)C1CCC(=O)N1C1CCCCC1 (stereo not drawn) | -6% | -1%
CC1(C)N(O)C2CCCCC2N1O (stereo not drawn) | -6% | .
COc1ccc(C2CC(c3ccc(OC)cc3)n3nc(N)nc3N2)cc1 (stereo not drawn) | -1% | -8%
COc1ccccc1CCNC1CCC(C)CC1 (stereo not drawn) | -3% | -14%
CC1(C)COC(c2coc3ccccc3c2=O)OC1 | -20% | i
COC(=O)c1cn(C(=O)c2cccs2)c2ccccc12 | -10% | -19%
Nc1c(C(=O)Nc2ccc(S(=O)(=O)N3CCCC3)cc2)sc2nc3cc4c(cc3cc12)CCC4 | 9% | -11%
CC1CCCC(C)N1C(=O)COc1ccc(C(=O)N/N=C/c2ccc(C(=O)O)cc2)cc1 (stereo not drawn) | 0% | i
CCCCN(CCCC)CCCNC(=O)C1CC(c2ccc(C(F)(F)F)cc2)=NO1 (stereo not drawn) | -13% | -16%
O=C(Nc1ccccc1)NC1CCN(CCCN2C(=O)c3ccccc3C2=O)CC1 | 4% | -10%
Cc1c(C(=O)N2CCC(C)CC2)c(S(=O)(=O)Nc2ccc(OC(F)(F)F)cc2)c(C)n1C | -11% | -18%
CCSc1ccccc1C(=O)Nc1nc2ccccc2c(=O)[nH]1 | -21% | ?
O=P(Cc1ccccc1)(c1ccccc1)c1ccccc1 | -19% | -2%
COc1ccc(C)cc1NC(=O)CSc1nnc(-c2cc(C)[nH]n2)n1N | -12% | i
CCOc1ccc(N2C(=O)/C(=C/c3ccccn3)SC2=S)cc1 | -4% | -6%
Cc1cc2oc(=O)cc(-c3cc4ccccc4o3)c2cc1OC(=O)N(C)C | -3% | -10%
O=[N+]([O-])c1ccc(/C=N/Nc2nc(N3CCCCC3)nc(N3CCCCC3)n2)cc1 | -21% | -30%
CCCNC(=O)c1ccccc1NC(=O)Cc1ccc(OC)c(S(=O)(=O)N2CCOCC2)c1 | -6% | i
N#Cc1ccc(S(=O)(=O)N2CCCCC2c2cc(C(=O)NCc3cccnc3)no2)cc1 (stereo not drawn) | -7% | 34%[activator]
CC(=O)c1ccc2c(c1)C1C=CCC1C(C(=O)O)N2 (stereo not drawn) | 12% | 5%
O=C(O)c1ccc(NC(=S)Nc2ccccc2)cc1 | -13% | i
COc1ccc(CCC(=O)NNC(=O)c2cc(Cl)ccc2OC)cc1 | -5% | -15%
COc1ccc(OC)c(C(=O)c2c(N)c(-c3nc(-c4ccc(C)c(C)c4)cs3)c3ccccn23)c1 | 6% | -6%
Cc1nc(NCCO)c(C#N)c2c1COC(C)(C)C2 | -20% | .
CCN(Cc1ccc2c(c1)OCCO2)C(=O)CN1C(=O)NC2(CCCCC2)C1=O | -8% | -14%
Cc1ccccc1[C@H](NC1c2ccccc2C=Cc2ccccc21)P(=O)(c1ccccc1)c1ccccc1 | ? | -19%
C=CCNC(=O)/C(C#N)=C/c1ccc(SC)cc1 | -4% | -17%
CC[N+]1(C)CC2CCC(C)(C1)C2(C)C (stereo not drawn) | 0% | -13%
CCN(CC)C(=O)c1ccc(NS(=O)(=O)c2ccccc2)cc1 | -11% | -11%
COCCN(CCOC)C(=O)CN1C(=O)NC2(CCCc3sccc32)C1=O (stereo not drawn) | 5% | 19%
COCCNC(=O)CN1CCOc2ccccc21 | -7% | -2%
